# Screening data from PubChem BioAssay.
# VDR inh: Inhibitors of the vitamin D receptor (VDR): qHTS; Vitamin D3 receptor (Homo sapiens), P11473; VDR-SRC2-3 peptide fluorescence polarization, 2 h; Potency, µM, without a hit: max response, negative = inhibition, actives largely listed as inhibitors; hit rate 0.93% among 400,000; active = well fitted inhibition curve with a large enough effect; inconclusive = small, poorly fitted or top-dose-only effect, or another doubt; inactive = no such curve, though single readings can be large or run the other way; note: series mostly up to about 120 µM
# Target sequence (P11473 whole entry, looked up): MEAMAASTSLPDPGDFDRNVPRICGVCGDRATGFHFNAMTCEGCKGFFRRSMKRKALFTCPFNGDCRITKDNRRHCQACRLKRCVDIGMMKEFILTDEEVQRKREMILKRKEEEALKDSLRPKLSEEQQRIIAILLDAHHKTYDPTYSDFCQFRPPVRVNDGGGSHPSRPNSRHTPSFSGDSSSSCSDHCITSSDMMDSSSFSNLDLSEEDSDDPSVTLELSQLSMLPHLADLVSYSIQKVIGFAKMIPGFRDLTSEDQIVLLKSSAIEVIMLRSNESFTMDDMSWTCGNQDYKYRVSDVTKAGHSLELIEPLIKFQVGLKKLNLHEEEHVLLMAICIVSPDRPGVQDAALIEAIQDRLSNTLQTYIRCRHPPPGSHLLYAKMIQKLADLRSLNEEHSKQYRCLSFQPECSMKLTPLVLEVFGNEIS
#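 Inhibition of the VDR/SRC2-3 peptide interaction is quantified by fluorescence polarization. Compounds (23 nl, pintool) incubate with the reagents for 2 hours at ambient room temperature.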
# An asterisk follows results filed as active; ? = inconclusive; & = joins results of further samples. % is set by controls: 0 for no effect and ±100 for the full control effect; potency is the fitted concentration of half-maximal effect. This is a subset; rates above refer to the full screens.
SMILES,VDR inh
COc1ccc(NC(=O)COc2ccc(C)cc2)c([N+](=O)[O-])c1,1%
CCOc1ccc(S(=O)(=O)NCC(c2cccs2)S(=O)(=O)c2ccc(C)cc2)cc1 (stereo unspecified),1%
O=C(NCCN1CCOCC1)c1cccc(S(=O)(=O)N2CCCCC2)c1,-9%
C=CCn1c(=S)sc2c(=O)[nH]c(C)nc21,-15%
CC(C)(C)NC(=O)Cn1c(=O)n(CC(=O)NC(C)(C)C)c2ccccc21,15%
O=C(CSc1nc(=O)[nH]c2c1CCCC2)Nc1cc(C(F)(F)F)cc(C(F)(F)F)c1,-7%
CC(=O)N1CCCc2cc(S(=O)(=O)N3CCCC(C(=O)Nc4cccc(C)c4)C3)ccc21 (stereo unspecified),17%
COc1ccccc1NC(=O)c1ccc(C(=O)Nc2ccccc2OC)nc1,5%
O=C1OC(c2ccccc2)=C/C1=C/N1CCOCC1,-1%
Cc1cccnc1NC(=O)C(c1ccccc1)c1ccccc1,0%
CC(C)Nc1c([N+](=O)[O-])c(=O)oc2ccccc12,1%
C/C(=N\NC(=O)C1CC1c1ccccc1)c1cccc([N+](=O)[O-])c1 (stereo unspecified),-2%
O=C1C2CCCN2C(=S)N1C1CCCCC1 (stereo unspecified),-1%
CC(C)OC(=O)CSc1nnnn1-c1ccc2c(c1)OCCO2,0%
CCC(=O)Nc1nonc1-c1nc2ccccc2n1Cc1cccc2ccccc12,3%
S=C(NCCCN1CCOCC1)N1CCN(c2nc(-c3ccccc3)cs2)CC1,-12%
O=C(Nc1cccc(F)c1)C1CCN(c2nc3ccccc3nc2C(F)(F)F)CC1,10%
CC1CC(C)CN(C(=O)COC(=O)c2ccc3ccccc3n2)C1 (stereo unspecified),-25%
Cc1cc(C)n(-c2nc3ccccc3nc2Nc2ccc3c(c2)OCO3)n1,4%
COc1ccc(CCNC(=O)C2(C)CCC(=O)N2Cc2ccc(C)cc2)cc1OC (stereo unspecified),10%
CC(=O)c1ccc(NC(=O)c2cc(C)nn2-c2ccccc2)cc1,-10%
CN1CCN(c2ccc(CNC(=O)c3cc4ccccc4o3)cc2)CC1,1%
COC(=O)CN1CCC(=O)c2ccccc2S1(=O)=O,-21%
CSc1ncccc1C(=O)Nc1ccncc1,-28%

# Seven consecutive entries from above, for reference:
SMILES,VDR inh
CC1CC(C)CN(C(=O)COC(=O)c2ccc3ccccc3n2)C1 (stereo unspecified),-25%
Cc1cc(C)n(-c2nc3ccccc3nc2Nc2ccc3c(c2)OCO3)n1,4%
COc1ccc(CCNC(=O)C2(C)CCC(=O)N2Cc2ccc(C)cc2)cc1OC (stereo unspecified),10%
CC(=O)c1ccc(NC(=O)c2cc(C)nn2-c2ccccc2)cc1,-10%
CN1CCN(c2ccc(CNC(=O)c3cc4ccccc4o3)cc2)CC1,1%
COC(=O)CN1CCC(=O)c2ccccc2S1(=O)=O,-21%
CSc1ncccc1C(=O)Nc1ccncc1,-28%

# (list continues)
SMILES,VDR inh
C=C1C=CS(=O)(=O)N(C(C)C(=O)OC)C1 (stereo unspecified),-9%
O=C(O)c1ccccc1C(=O)c1cccc2c(Br)cccc12,-3%
COc1ccc(-c2cc3c(=O)n(CC(=O)NCc4cccnc4)ncn3n2)cc1,12%
Cc1ccc(O)c(NC(=O)c2cc(-c3ccc4c(c3)OCO4)on2)c1,-3%
Cc1cc(C)cc(NC(=O)C2(c3cccs3)CCOCC2)c1,8%&-1%
COc1cccc(CSc2nc3n(n2)C(CC(C)C)C(C(=O)Nc2ccccc2C)=C(C)N3)c1 (stereo unspecified),15%
NC(=O)c1ccccc1NC(=O)Cc1cccs1,20%
CCOC(=O)Cn1c(=O)oc2cc(S(=O)(=O)NCCc3ccc(OCC)c(OCC)c3)ccc21,3%
Cc1cc(C)c(S(=O)(=O)c2ccccc2)c(OC(=O)c2c(Cl)cccc2Cl)n1,-9%
C/C(N)=C(/C#N)C(=O)CSc1nnc(COc2cc(C)ccc2C)o1,4%
Cc1nc([N+](=O)[O-])nn1C12CC3CC(CC(Br)(C3)C1)C2,20µM*
COc1ccc(-c2nn(C)c(=O)c3ccccc23)cc1NC(=O)COc1ccc(C)cc1,19%

# Looked up above:
# O=C(O)c1ccccc1C(=O)c1cccc2c(Br)cccc12 in VDR inh: -3%
# NC(=O)c1ccccc1NC(=O)Cc1cccs1 in VDR inh: 20%

# The list continues:
SMILES,VDR inh
Cc1ccc(C)c(NC(=O)Cn2c(=O)ccc3cc(S(=O)(=O)N4CCCC4)ccc32)c1,-3%
CCOC(=O)c1ccc(NC(=S)N2CCCC2)cc1,8%
CCOc1ccc(CCNC(=O)CCCn2c(=O)c3cccn3c3cccnc32)cc1OCC,8%&4%
CCCCn1nc(NC(=O)COC)c2cc3ccc(C)cc3nc21,1%
O=S(=O)(c1cccc2ccccc12)N1CCC2CC1c1cc(-c3ccc(F)cc3)ccc12 (stereo unspecified),2%
NC(=O)C1CCN(C(=O)CSc2ccsc2[N+](=O)[O-])CC1,-18%
CC1CN(C(=O)COC(=O)c2ccc(Cl)c(N)c2)CC(C)O1 (stereo unspecified),12%
CC(C(=O)N1c2ccc(F)cc2CCC1C)N1C(=O)c2ccccc2C1=O (stereo unspecified),26%
COc1ccc(N2CCN(C(=O)CN=C3NS(=O)(=O)C(c4ccc(C)cc4)=C3C)CC2)cc1,-12%
COc1ccc2oc(C(=O)OCC(=O)Nc3ccc(NC(C)=O)cc3)c(C)c2c1,1%
COc1ccc(NC(=O)Cc2c(Cl)cccc2Cl)cn1,-17%
COc1ccc(C(=O)Nc2ccc(S(=O)(=O)Nc3onc(C)c3C)cc2)cc1,1%
Cc1cc(Cl)c2oc(C(=O)N3CCC(O)(c4ccccc4)CC3)c(C)c2c1,9%
CC(=O)NCc1ccc(S(=O)(=O)NC(C(=O)O)C(C)C)cc1 (stereo unspecified),6%
O=C(O)c1cccc2c(-c3ccccc3)c(-c3ccccc3)[nH]c12,-19%
COc1ccc(C2C(C(C)=O)=C(O)C(=O)N2Cc2ccccc2)c(OC)c1 (stereo unspecified),-2%
Oc1c(C(c2ccccc2F)N2CCOCC2)sc2nc(-c3ccco3)nn12 (stereo unspecified),1%
Cc1cccc(C)c1OCC(=O)NCc1nnc(SCC(=O)NC2CCCCC2C)n1C (stereo unspecified),-17%
Cc1ccc(N2CCN(S(=O)(=O)c3nnc(NC(=O)c4ccccc4)s3)CC2)cc1,11%&3%
Cc1c(NC(=O)CCC2CCCCC2)c(=O)n(-c2ccccc2)n1C,-1%
COc1ccccc1C(=O)C1CCCN(C(=O)c2ccccc2Cl)C1 (stereo unspecified),12%
Cc1ccc(C(=O)c2coc3ccc(O)c(CN(C)C)c23)cc1,-15%
O=C(Nc1cccc(Cl)c1)C1CCCN(S(=O)(=O)c2ccc(F)cc2)C1 (stereo unspecified),-14%
CC(=O)N1CCc2c(sc(NC(=O)C3CC3)c2-c2nc3ccccc3s2)C1,-6%

# Compounds listed so far containing two or more sulfur atoms, in the order listed:
SMILES,VDR inh
CCOc1ccc(S(=O)(=O)NCC(c2cccs2)S(=O)(=O)c2ccc(C)cc2)cc1 (stereo unspecified),1%
C=CCn1c(=S)sc2c(=O)[nH]c(C)nc21,-15%
S=C(NCCCN1CCOCC1)N1CCN(c2nc(-c3ccccc3)cs2)CC1,-12%
NC(=O)C1CCN(C(=O)CSc2ccsc2[N+](=O)[O-])CC1,-18%
Cc1ccc(N2CCN(S(=O)(=O)c3nnc(NC(=O)c4ccccc4)s3)CC2)cc1,11%&3%
CC(=O)N1CCc2c(sc(NC(=O)C3CC3)c2-c2nc3ccccc3s2)C1,-6%

# Other compounds follow:
SMILES,VDR inh
COC(=O)[C@H](Cc1ccccc1)NS(=O)(=O)c1ccc(F)cc1Br,-5%
COc1ccc(OC)c(NC(=O)CSc2sc3c(O)cc(=O)[nH]c3c2C#N)c1,?
Fc1ccc(CSc2nc(NCc3ccccc3)c3ccccc3n2)cc1,8%
CCn1c(/C=C/c2ccccc2Cl)nc2ccccc2c1=O,3%
COc1cc(C2CC(=O)c3c([nH]c(C(=O)OC4CCCCC4)c3C)C2)cc(OC)c1OC (stereo unspecified),10%
O=C(C/C=N/OCc1c(Cl)cccc1Cl)c1ccc(Cl)cc1,8%
COc1cc(NC(=O)COc2cc3oc(=O)cc(C)c3cc2Cl)cc(OC)c1OC,0%
c1ccc2c(c1)CCN2CCN1CCc2ccccc21,9%
COc1ccc(C(=O)Nc2ccc(C)cn2)c(OC)c1,-14%
O=C(Cc1cccc(NC(=O)C2CCN(C(=O)CCc3ccccc3)CC2)c1)Nc1cccc(C(=O)N2CCCC2)c1,6%
CCn1c(CN(C)c2ccccc2)nc2ccccc21,15%
CCc1ccc(C(C)NC(=O)/C=C/c2ccc(Br)cc2)cc1 (stereo unspecified),-12%
Cc1cc(NC(=O)c2ccc(Br)o2)ccc1NC(=O)c1ccco1,12%
Cc1ccc(N2CCN(/N=C/c3ccccc3[N+](=O)[O-])CC2)cc1,15%
c1ccc2c(c1)Nc1ccncc1S2,2%
CCOc1ccc(S(=O)(=O)Nc2ccc(OC)nc2)cc1,-9%
COc1cccc(CN2CCC(Oc3ccc(C(=O)N4CCCCC4)cc3)CC2)c1,0%
COc1ccc(C(=O)NCc2nnc(SCC(=O)NCc3ccc(F)cc3)o2)cc1,24%
CCCOc1ccc(C2=CSC3=NCCN23)cc1[N+](=O)[O-],?
CCN1C(=O)CC(N2CCN(c3cccc(OC)c3)CC2)C1=O (stereo unspecified),-10%
COc1ccc(N2CC(=O)N(c3ccc(OC)c(OC)c3)CC2=O)cc1OC,-8%
Cc1cccc(OCC(=O)NCc2ccncc2)c1C,-8%
O=C(CN(CC1CCCO1)C(=O)CNS(=O)(=O)c1ccc(F)cc1)NCc1ccco1 (stereo unspecified),-12%
CCc1ccc(NC(=O)C(=O)NCC(c2cccnc2)N2CCc3ccccc3C2)cc1 (stereo unspecified),10%
O=C(NCCN1CCCc2ccccc21)C1CCC(=O)N(CCc2ccccc2)C1 (stereo unspecified),-4%
O=C(Nc1ccc(F)cc1F)c1cc(=O)n(-c2ccccc2)c(=O)[nH]1,4%
O=C(O)C1CCCCC1C(=O)Nc1cccc(Br)c1 (stereo unspecified),-9%
COCCNC(=O)c1cnn2c1NC(c1ccco1)CC2C(F)(F)F (stereo unspecified),22%
COc1ccccc1N1CCN(C(=O)c2nc(SC)ncc2Cl)CC1,2%
CCOC(=O)c1ccccc1NC(=O)COC(=O)CCC1CCCC1,-11%
C=C1N[C@]2(C(=O)COC(C)=O)[C@@H](C[C@H]3[C@@H]4CCC5=CC(=O)C=C[C@]5(C)[C@H]4[C@@H](O)C[C@@]32C)O1,1%
Cc1ccc([C@@H]2CC=C(C(=O)O)[C@H](c3ccccc3)N2S(=O)(=O)c2ccccc2C)cc1,-13%
Cc1ccc(NC(=O)CN(C)S(=O)(=O)c2ccc3[nH]c4c(c3c2)CCCC4)c(Cl)c1,13%
CCN(CC)S(=O)(=O)c1ccc(N2CCOCC2)c(NC(=O)C23CC4CC(CC(Cl)(C4)C2)C3)c1,-20%
COc1ccccc1NC(=O)CN1C(=O)CC(c2ccc(C)c(C)c2)=Nc2ccccc21,16%
CN(C)C1=NC[C@H](Cc2ccccc2)N1CC1CCCCCC1,-1%
NC(=O)[C@@H]1CCCCNc2c(F)cc([N+](=O)[O-])cc2C(=O)N[C@@H](CCCN=C(N)N)C(=O)NCC(=O)N1,-6%
CC(C)(C)C(=O)n1nc(-c2ccccc2)oc1=O,?
O=C1/C(=C\c2ccc(O)cc2)SC(=S)N1Cc1ccccc1,23%
CC(C)NC(=O)N(C)C[C@@H]1Oc2c(NC(=O)Nc3ccccc3)cccc2C(=O)N([C@H](C)CO)C[C@H]1C,-28%
O=C(Oc1c(-c2ccccc2)c(=O)n2c3c(cccc13)CC2)c1ccc(F)cc1,7%
Fc1ccccc1-n1c(-c2ccc3ccccc3n2)n[nH]c1=S,-2%
CC1(c2nnc(-c3ccc(Cl)cc3)o2)CC(c2c(Cl)cccc2Cl)=NO1 (stereo unspecified),-11%
O=C(Nc1nc2c(F)cccc2s1)c1ccco1,4%
O=C(c1cccc(Cl)c1)N1CCC(c2nc3ccccc3[nH]2)CC1,17%
O=C(Nc1ccc(OC(F)(F)F)cc1)c1ccc(S(=O)(=O)N2CCOCC2)o1,2%
O=C(O)CSc1c(O)c2ccccc2[nH]c1=O,-24%
CNC(=O)C(=O)NCC1CCCN1S(=O)(=O)c1cccs1 (stereo unspecified),-11%
CC(C)c1nnc(NC(=O)C2CCN(C(=O)Nc3ccccc3)CC2)s1,-11%
COc1ccc(-c2cn(-c3ccccc3)nc2C(=O)O)cc1OC,-17%
CCN(CC(=O)Nc1c(F)cccc1F)C(=O)Cc1ccc2c(c1)CCC2,6%
Cc1ccc(S(=O)(=O)N2CCOCC2)cc1C(=O)NC1CCSc2ccccc21 (stereo unspecified),7%
CCOc1ccc(N2C(=O)CC(NCC#N)C2=O)cc1 (stereo unspecified),-6%
Cc1ccccc1NC(=O)Cc1nc(COC(=O)c2cccc([N+](=O)[O-])c2)cs1,18%
CC(=O)n1cc(/C=N/NC(=O)c2ccc(Cl)cc2)c2ccccc21,-7%
COc1ccc(OC)c2[nH]c(C(=O)N/N=C/c3ccccc3O)cc12,-7%
Cc1ccc(NC(=S)N(Cc2cccc(Br)c2)CC2CCC(C(=O)O)CC2)cc1Cl (stereo unspecified),-9%
CCOc1cc(C(=O)NCC(=O)N/N=C/c2sccc2C)cc(OCC)c1OCC,-14%
O=C(Nc1nc(-c2cc3ccccc3oc2=O)cs1)c1ccco1,5%
CCOC(=O)c1nn(-c2ccc(F)cc2)c(-c2ccccc2)c1C(=O)c1ccccc1,-4%
O=S(=O)(Nc1cc(S(=O)(=O)N2CCOCC2)ccc1NCC1CCCO1)c1ccc(F)cc1 (stereo unspecified),-19%
Cc1cccc(NC(=O)/C(C#N)=C/c2ccco2)c1,-5%
